High-throughput results deposited in PubChem BioAssay by several laboratories.
Rce1 inh – yeast Rce1p protease inhibitors, primary screen, biochemical, fluorescence, cell-free homogeneous. CAAX prenyl protease 2 (Saccharomyces cerevisiae (strain ATCC 204508 / S288c)), Q03530. yeast membranes, quenched prenylated peptide cleavage fluorescence. calls only. 0.27% of 290,000 active;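 active = fall in fluorescence gain of 50% or more versus controls, with final raw signal at or below 3038400; inconclusive = same 50% fall but final raw signal above 3038400; inactive = fall in fluorescence gain under 50%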;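 also: plate controls were neutral control wells for no effect and wells lacking membranes for full effect; tested at 10 µM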
Target sequence (Q03530 whole entry, looked up): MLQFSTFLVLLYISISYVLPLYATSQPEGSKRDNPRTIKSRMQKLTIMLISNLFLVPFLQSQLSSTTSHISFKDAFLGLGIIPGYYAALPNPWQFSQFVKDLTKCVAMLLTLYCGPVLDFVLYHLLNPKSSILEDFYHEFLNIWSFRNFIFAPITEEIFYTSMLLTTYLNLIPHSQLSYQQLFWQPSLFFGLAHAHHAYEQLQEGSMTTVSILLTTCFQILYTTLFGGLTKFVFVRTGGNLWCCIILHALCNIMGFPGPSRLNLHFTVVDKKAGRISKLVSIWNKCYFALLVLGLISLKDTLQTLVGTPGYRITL
PABP FP inh – PABP poly(A) RNA binding inhibitors, primary screen, biochemical, fluorescence polarization, uHTS; Polyadenylate-binding protein 1 (Homo sapiens), P11940; inhibition, % at 35 µM; 1% of 290,000 active;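 active = 50% or more with normal probe brightness, or confirmed in later tests; inconclusive = above 50% with abnormal brightness, or retests that disagree; inactive = below 50% or failed in later tests; about a fifth of its hits are not listed in these tables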;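 also: calls also rest on retests at 20 µM and on dose response follow-up; controls were probe without protein and protein plus probe with vehicle; some compounds called inactive have numbers as strong as hits; many hits fall short of the cut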
eIF4H inh – human eIF4H binding inhibitors, primary screen, translation initiation inhibitor project, biochemical, uHTS, fluorescence polarization; Eukaryotic translation initiation factor 4H (Homo sapiens), Q15056; eIF4H fluorescence polarization binding assay; inhibition, % at 35 µM; 0.94% of 290,000 active; AID 2012, 2009;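 active = 50% or more with normal probe brightness, or confirmed in later tests; inconclusive = above 50% with abnormal brightness, or retests that disagree; inactive = below 50% or failed in later tests; about a fifth of its hits are not listed in these tables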;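 also: calls also rest on retests at 20 µM and on dose response follow-up; 0% = protein and probe with vehicle and 100% = probe without protein; strong numbers were not always called active; many hits fall short of the cut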
Yeast UUG start – modulators of yeast start codon fidelity, primary screen, whole organism, S. cerevisiae, single point, plate reader; S. cerevisiae UUG-firefly luciferase reporter, luminescence/redox ratio; activity score, % at 18.7 µM; 0.13% of 350,000 active; AID 602363, 2012;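 active = replicate mean at a twofold rise or more, about +100% in these data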;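 also: firefly luciferase made from a UUG start codon reports start codon fidelity; reporter light over untreated wells divided by growth signal over untreated wells; some hits fall short of that in this replicate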
CSC inhib – cancer stem cell viability inhibitors, primary screen, luminescence | cancer stem cell-like cells viability | inhibition, % at 7.5 µM | 1.1% of 300,000 active;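 active = mean at 75% or more and at least half the replicates too; inconclusive = mean and replicates disagree; tested in HMLE shEcad cells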;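 also: 0% = median of negative and 100% = median of positive control wells; the first replicate is given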
Env fusion inh – inhibitors of HIV-1 Env-driven cell-cell fusion, primary screen, HeLa-JRFL effector, CEM21 target cells, luciferase; AID 651610, 2012; 1.1% of 360,000 active; inhibition, % at 12.3 µM;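 active = mean replicate inhibition score of at least 50 and every replicate individually at or above 50; inconclusive = only one of the two criteria met; inactive = mean below 50 and not all replicates reaching 50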;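 also: 0% = plate neutral controls and 100% = maraviroc near 300 nM; one replicate is shown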
MT1-MMP act inh – blockers of MT1-MMP proenzyme processing, primary screen, HT1080 RFP-PRO-GFP cells, GFP/RFP fluorescence. Matrix metalloproteinase-14 (Homo sapiens), P50281. AID 651647, 2012. 0.061% of 360,000 active. GFP/RFP ratio change, % at 20 µM. GFP/RFP ratio fluorescence, overnight; percent of plate control window, DMSO zero;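 active = GFP/RFP ratio change of at least 30% with cell ATP level not reduced by more than half and red fluorescence within 50% of control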; also: strong numbers were not always called active
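Material: RFP-PRO-GFP reporter HT1080 cells. Dosing: single-point 20 µM compound, 1% DMSO. Controls: DMSO and RFP-L50D-GFP cell wells. Timing: cells overnight before dosing, compound overnight, 37 °C, 5% CO2. Measure: GFP/RFP fluorescence ratio.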
MT1-MMP act inh RFP – recorded beside MT1-MMP act inh, whose call it bears; RFP signal change, %; measured here: RFP expression control read;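 0 = vehicle wells; hits needed this value within 50% of zero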
Starred values were filed as active, the others as inactive; i = inactive; ? = inconclusive; / = no result given.

The line under a structure holds: Rce1 inh, PABP FP inh, eIF4H inh, Yeast UUG start, CSC inhib, Env fusion inh, MT1-MMP act inh, MT1-MMP act inh RFP
Cc1ccc(Nc2nc(-c3ccc(S(=O)(=O)N4CCCC4)cc3)cs2)cc1C
  i, 9, -6, /, -6, /, -6, -22
O=C(O)c1ccccc1NCN1C(=O)C2CC=C(Cl)CC2C1=O (stereo not drawn)
  i, -8, 3, -27, 17, -11, 7, 2
CCOC(=O)CSc1nnc(SCCN2C(=O)c3ccccc3C2=O)s1
  i, -3, -2, -26, -9, /, 5, 3
CCOC(=O)C1CCN(C(=O)NC23CC4CC(CC(C4)C2)C3)CC1
  i, 2, -4, -8, 7, /, 7, 6
CCCCN(Cc1cc2cccc(C)c2[nH]c1=O)S(C)(=O)=O
  i, 12, 2, -15, -16, 4, -3, 0
O=C(NC1CCCCC1)C(Cc1ccccc1)NS(=O)(=O)c1cccs1 (stereo not drawn)
  i, 16, 6, 6, -7, 24, -1, -1
COc1cc(CCNC(=O)CCCn2c(=O)c3cccn3c3cccnc32)cc(OC)c1OC
  i, 5, -7, 4, -26, -1, 6, 8
CCCCc1nc2cc(C(=O)N3CCCCC3C(=O)OC)ccc2o1 (stereo not drawn)
  i, -18, -21, 12, 15, -16, 0, 0
Cc1ccccc1NC(=O)C1(NC(=O)c2cccc(N3C(=O)CSC3c3ccccc3)c2)CCCCC1 (stereo not drawn)
  i, 0, -2, -8, -15, -128, 5, 6
CC(C)(C)c1ccc(OCCC(=O)NNC(=O)c2ccncc2)cc1
  i, /, /, /, 1, -49, -1, -1
Cc1cc(C)c2nc(SCC(=O)NNC(=O)c3ccco3)c(C)cc2c1
  i, -10, 5, -5, 6, 14, 5, -3
CCC(C)NC(=O)CSc1nc2ccccc2c(=O)n1CCCC(=O)NCC1CCCO1 (stereo not drawn)
  i, -12, 2, -9, -3, -72, -4, -1
COc1ccc(CCN2CC(C(=O)OCC(=O)Nc3c(C)nn(-c4ccccc4)c3C)CC2=O)cc1OC (stereo not drawn)
  i, /, /, -13, -8, 7, 2, 4
COc1ccc(SCCN2CC[C@@H](O)CCC2=O)cc1
  /, /, /, -9, -6, 16, 1, 4
CN(CCCC(=O)Nc1nccs1)S(=O)(=O)c1ccc(Cl)cc1
  i, 3, -14, 3, -1, -17, 0, -5
OCC1(CCCc2ccccc2)CCN(Cc2ccc(F)cc2)CC1
  i, 4, -5, /, 28, -5, 5, 8
COc1ccc(NS(=O)(=O)c2cc(NC(=O)CNC(=O)c3cccc(OC)c3)ccc2C)cc1
  i, 8, -2, -5, -11, -4, 9, 1
C=CCNC(=O)c1ccc(Cl)cc1Cl
  /, 12, 2, -23, -21, /, -2, -1
Nc1nc(CSCCO)nc(Nc2ccc(F)cc2)n1
  /, 8, 9, -8, 8, -35, -2, 0
O=C1NC(NS(=O)(=O)c2ccccc2)(C(F)(F)F)C(=O)N1CCc1ccccc1 (stereo not drawn)
  i, 15, 8, -3, 0, 12, -3, -4
COc1ccc(N2CCN(CC(=O)c3c[nH]c4ccccc34)CC2)cc1
  i, 2, -1, -3, 2, 9, 3, 4
COc1ccc(N2CCN(C(=O)C3CCCN(S(=O)(=O)c4c(C)noc4C)C3)CC2)cc1 (stereo not drawn)
  i, 4, -2, 8, -7, 2, 9, -6
COc1ccc(S(=O)(=O)NCCNC(=O)N2CCOCC2)cc1
  i, -1, -2, -17, 1, 4, 2, 4
CSc1nc(N2CCOCC2)c2c3c(sc2n1)CCC3
  i, 4, -1, -10, -5, /, -3, 0
O=C(c1ccc(Oc2ccc(Cl)cc2)c([N+](=O)[O-])c1)N1CCCC1
  i, -11, 0, 0, /, 34, -2, -4
COc1cc(/C=C/C(=O)OCC(=O)NCCC2=CCCCC2)cc(OC)c1OC
  /, /, /, /, -9, 19, 1, 1
CN1CCN(C(=O)c2ccccc2-c2ccccc2C(=O)O)CC1
  i, -1, -10, -22, -12, -8, 0, 0
CC(OC(=O)Cn1[nH]c(=O)c2ccccc2c1=O)C(=O)Nc1ccc(F)cc1Cl (stereo not drawn)
  i, /, /, -14, -3, -1, -2, -2
CC(CCc1ccccc1)NC(=O)C(=O)NCCO (stereo not drawn)
  i, -11, -2, -23, 6, -14, 0, 3
COc1ccc(-c2nc3n(c2C)Cc2ccccc2-3)cc1
  i, 3, -2, /, 11, -62, 3, 0

New compounds follow.
SMILES | Rce1 inh | PABP FP inh | eIF4H inh | Yeast UUG start | CSC inhib | Env fusion inh | MT1-MMP act inh | MT1-MMP act inh RFP
CCn1c(-c2cc(Cl)ccc2OC)n[nH]c1=S | i | 2 | 2 | -23 | 5 | / | 2 | 3
CCOc1ccc(NS(=O)(=O)c2ccc(NS(=O)(=O)c3ccccc3)cc2)cc1 | i | -5 | -10 | -7 | 6 | -55 | 1 | -2
C/C(=N\NC(=O)c1ccc(F)cc1)c1ccccn1 | i | -1 | 20 | / | 104* | -14 | 5 | -4
Cc1ccc(C)c(S(=O)(=O)N2CCN(C(=O)CSc3ccccc3)CC2)c1 | i | 12 | -4 | 14 | 7 | / | -4 | -4
CC(Oc1ccc2c3c(c(=O)oc2c1)CCCC3)C(=O)NCc1ccccn1 (stereo not drawn) | i | 4 | -9 | -18 | 7 | 5 | 3 | 3
COc1ccccc1-c1nc(-c2cccc(C)c2)no1 | i | -7 | 1 | -27 | 7 | / | -4 | -2
Cc1ccc(/C(O)=C2\C(=O)C(=O)N(CC(C)O)C2c2cccc(F)c2)cc1 (stereo not drawn) | i | -3 | -14 | -14 | -10 | / | 2 | 7
N#Cc1c(C(F)(F)F)cc(-c2ccco2)nc1SCc1ccncc1 | i | 2 | 1 | -16 | 7 | -126 | -183 | -12
CC(C)(C)C(=O)O/N=C(\N)Cc1ccc(-c2csnn2)cc1 | i | -6 | -4 | 8 | 1 | 4 | -2 | -8
COc1ccc(CCNC(=O)c2ccc(Cl)cc2Cl)cc1OC | ? | 6 | -4 | / | -8 | -2 | 0 | 0
CCCOc1cccn2c(N(C)C(=O)c3ccccc3F)c(CC)nc12 | / | / | / | -3 | / | 5 | 2 | 4
OCCN(CC(O)Cn1ccc2ccccc21)CC(O)Cn1ccc2ccccc21 (stereo not drawn) | i | -1 | 3 | -12 | 8 | -132 | -5 | 0
COc1ccccc1N1CCN(C(=O)CCCC2=NS(=O)(=O)c3ccccc3N2)CC1 | i | -21 | -5 | -3 | 0 | 4 | 9 | 3
CNC(=O)C(=O)NCC1OCCCN1S(=O)(=O)c1cccs1 (stereo not drawn) | i | -6 | -2 | / | -39 | -9 | -1 | -1
CN(C)CCNc1ccc(-c2n[nH]c(=O)c3ccccc23)cc1[N+](=O)[O-] | i | -8 | -4 | -3 | / | -7 | 0 | 2
COc1ccc(-n2nc(C(=O)NCC(=O)NCCCN3CCOCC3)c3ccccc3c2=O)cc1OC | / | 0 | -9 | -14 | -8 | -2 | -2 | 2
O=C(N/N=C\c1ccco1)Nc1cccc(Cl)c1 | / | -8 | -5 | / | -9 | -103 | 3 | 3
O=C(CN1C(=O)c2ccccc2C1=O)Nc1sc2c(c1C(=O)NCC1CCCO1)CCC2 (stereo not drawn) | i | 1 | -12 | 3 | / | -36 | 4 | 7
Cc1ccc(-n2c(SCC(=O)N3CC(=O)Nc4ccccc43)nc3ccccc3c2=O)cc1 | i | 8 | -9 | / | -16 | -5 | -5 | -5
Cn1cccc1/C=N/NC(=O)CNc1ccc2ccccc2c1 | i | 8 | 13 | -22 | -10 | 6 | 4 | 3
Cc1nc(S(=O)(=O)Nc2ccc3c(c2)OCCO3)cn1C | i | -6 | 5 | -9 | -5 | -3 | 1 | 1
O=C(NCc1ccco1)/C(=C\C=C\c1ccccc1)NC(=O)c1ccco1 | i | 7 | 12 | -15 | -4 | 3 | 2 | 3
COc1cc(-c2nc3cnccn3c2Nc2ccc3c(c2)OCCO3)ccc1O | i | 13 | -3 | -7 | -9 | -19 | 6 | 0
CCc1ccc(OCC(=O)N/N=C(\C)c2ccc(O)cc2O)cc1 | i | 6 | -5 | -13 | 18 | -135 | -7 | -11
COc1ccc2nccc(/C=C/c3ccnc4ccc(OC)cc34)c2c1 | i | -2 | -6 | -17 | 5 | 1 | 9 | -3
CC(=O)NC(=S)Nc1cccc(S(=O)(=O)NC2=NCCC2)c1 | i | -11 | -13 | -14 | 2 | / | -8 | 2
Cc1nc(SC(C)C)[nH]c(=O)c1Cc1ccccc1 | i | 5 | -1 | -4 | 3 | 7 | -7 | -7
CCn1cc(C(=O)NCCCOC)c(=O)c2cc(S(=O)(=O)N(C)C3CCCCC3)ccc21 | i | -17 | -8 | 16 | -2 | 14 | 0 | 1
Clc1ccc(Nc2nc(-c3cccs3)cs2)nc1 | i | 9 | -6 | -45 | 46 | / | -15 | -13
CN(C(=O)c1ccc2c(=O)n3c(nc2c1)CCCCC3)c1ccccc1Cl | i | 0 | -1 | 5 | -4 | 7 | 1 | -5

An excerpt from above in order of count of non-hydrogen atoms, highest first:
SMILES | Rce1 inh | PABP FP inh | eIF4H inh | Yeast UUG start | CSC inhib | Env fusion inh | MT1-MMP act inh | MT1-MMP act inh RFP
COc1cc(CCNC(=O)CCCn2c(=O)c3cccn3c3cccnc32)cc(OC)c1OC | i | 5 | -7 | 4 | -26 | -1 | 6 | 8
CCn1cc(C(=O)NCCCOC)c(=O)c2cc(S(=O)(=O)N(C)C3CCCCC3)ccc21 | i | -17 | -8 | 16 | -2 | 14 | 0 | 1
Cc1ccc(/C(O)=C2\C(=O)C(=O)N(CC(C)O)C2c2cccc(F)c2)cc1 (stereo not drawn) | i | -3 | -14 | -14 | -10 | / | 2 | 7
CCc1ccc(OCC(=O)N/N=C(\C)c2ccc(O)cc2O)cc1 | i | 6 | -5 | -13 | 18 | -135 | -7 | -11
CN(CCCC(=O)Nc1nccs1)S(=O)(=O)c1ccc(Cl)cc1 | i | 3 | -14 | 3 | -1 | -17 | 0 | -5

An excerpt (hit frequency here may not be typical).
